KCNQ2 block = KCNQ2 potassium channel inhibitors, primary screen, cell-based, CHO-K1, FluxOR thallium flux, B-score (AID 2156) | B-score at 10 µM | 20 min; stronger effect = lower value; only compounds with negative scores are shown here; some inactives read as strong as hits | O88943 | 310,000 tested, 1.1% active;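 active = fluorescence ratio B-score at most minus 3 library SDs, with starting brightness B-score within 2 library SDs, cut at about -5.5 in these data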
Target sequence (O88943 whole entry, looked up): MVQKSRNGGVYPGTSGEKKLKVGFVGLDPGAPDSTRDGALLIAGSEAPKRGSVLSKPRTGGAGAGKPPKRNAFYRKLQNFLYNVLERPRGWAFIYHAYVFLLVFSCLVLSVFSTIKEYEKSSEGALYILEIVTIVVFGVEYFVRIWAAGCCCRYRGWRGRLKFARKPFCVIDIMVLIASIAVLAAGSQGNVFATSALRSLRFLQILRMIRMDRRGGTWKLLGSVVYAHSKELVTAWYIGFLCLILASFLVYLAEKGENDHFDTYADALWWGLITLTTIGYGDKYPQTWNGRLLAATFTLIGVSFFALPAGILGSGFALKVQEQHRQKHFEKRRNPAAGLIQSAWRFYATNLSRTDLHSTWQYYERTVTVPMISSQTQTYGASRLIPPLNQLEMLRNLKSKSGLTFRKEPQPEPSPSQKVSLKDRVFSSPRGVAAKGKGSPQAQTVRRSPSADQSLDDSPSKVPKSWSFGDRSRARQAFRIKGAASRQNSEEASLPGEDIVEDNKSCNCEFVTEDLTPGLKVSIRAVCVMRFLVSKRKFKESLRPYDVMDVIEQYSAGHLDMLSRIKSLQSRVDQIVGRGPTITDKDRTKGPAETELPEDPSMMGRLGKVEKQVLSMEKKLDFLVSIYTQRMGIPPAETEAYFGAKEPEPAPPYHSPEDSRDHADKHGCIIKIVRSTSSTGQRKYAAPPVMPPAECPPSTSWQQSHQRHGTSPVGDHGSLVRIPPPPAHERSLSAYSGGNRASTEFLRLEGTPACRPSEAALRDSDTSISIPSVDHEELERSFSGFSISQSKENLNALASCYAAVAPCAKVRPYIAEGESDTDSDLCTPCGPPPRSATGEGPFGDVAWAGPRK
KCNQ2 block baseline = also measured in KCNQ2 block; calls as there; B-score; measured here: initial fluorescence intensity artifact check;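 brightness before thallium and not channel activity; 0 = typical well and far values either way flag optical interference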
Active calls of the source: *; i = inactive.

entry | mol | KCNQ2 block | KCNQ2 block baseline
1 | CCOc1cc(/C=N/O)ccc1OCc1ccc([N+](=O)[O-])cc1 | i | -0.06
2 | CCCn1c(SCC(=O)Nc2nnc(-c3ccccc3)s2)nnc1-c1ccccn1 | i | 2.1
3 | Cn1cccc1/C=C1\SC(=O)N(c2ccc(O)cc2)C1=O | i | 1.7
4 | Cc1nc2scc(C)n2c(=O)c1S(=O)(=O)NCc1ccccc1Cl | i | 0.13
5 | COc1ccc(/C=N/NC(C)(C)C)c(OC)c1 | i | 0.84
6 | CCc1cccc(NC(=O)c2cnn(-c3ccccc3)c2C)c1 | i | -2.4
7 | CCOC(=O)c1sc(NC(=O)CSc2nnc(C(C)C)n2CC)nc1C | i | -0.48
8 | Cc1cc(C)n(CCc2nc(-c3ccc(C)o3)cs2)n1 | i | 0.59
9 | CCOc1cc(S(=O)(=O)n2cc(-c3ccc(F)cc3)c(N)n2)cc(OCC)c1OCC | i | -1.4
10 | CCC1=NNc2cccc3c(OC)ccc1c23 | i | -1.9
11 | O=C(Nc1ccc(Cl)cn1)c1ccc2c(c1)OCCO2 | i | 0.95
12 | Cc1ccc(Nc2nc(C(=O)N3CCC(C(=O)NC(C)C)CC3)cs2)cc1 | i | 0.63
13 | CCN(CC)S(=O)(=O)c1ccc(Cl)c(C(=O)Nc2cccnc2)c1 | i | 0.88
14 | COc1nc(NCCO)nc(Nc2ccccc2F)n1 | i | 1
15 | CCOc1ccc2c(c1)nc(NCCCO)n2Cc1ccccc1 | i | 0.01
16 | Cn1c(=O)cc(N2CCN(C(=O)c3ccco3)CC2)[nH]c1=O | i | -0.19
17 | Cc1ccc2nc(-c3cccc(Br)c3)cc(C(=O)NCC3CCCO3)c2c1 (configuration not stated) | i | 0.43
18 | Cc1ccc(-c2nnc(NCc3ccccc3)c3ccccc23)cc1 | i | -0.71
19 | CCOc1ccc(CCNC(=O)Cc2nn[nH]n2)cc1OCC | i | -1.5
20 | Cn1c2c(c3ccccc31)CCSC2=O | i | -0.2
21 | O=C(NCc1ccccc1)C1=C[C@@H](c2coc3ccccc3c2=O)C[C@@H](OCc2ccc(CO)cc2)O1 | i | 2.7
22 | COC(=O)c1c(C)oc2cc(Br)c(OCC(=O)C(C)(C)C)cc12 | i | 1.7
23 | Cc1ccc(/C=N/N(C)C2=NS(=O)(=O)c3ccccc32)o1 | i | 0.34
24 | Cc1ccc(NC(=O)CSc2nnc(C)c(=O)n2N)c(C)c1 | i | -0.76
25 | Cc1cccc(C)c1NC(=O)C(C)N1CCCC1 (configuration not stated) | i | 0.8
26 | COc1ccc(CNc2ccc(C)c(C)c2)cc1 | i | -0.02
27 | CC(=O)Nc1ccc(NC(=O)c2cc(=O)c3cc(C)c(C)cc3o2)cc1 | i | 1.7
28 | Cc1ccc(-n2nc3c(c2NC(=O)c2ccccc2)CS(=O)(=O)C3)cc1C | i | -0.15
29 | O=c1oc(/C=C/c2ccc([N+](=O)[O-])s2)nc2ccccc12 | i | -0.12
30 | COc1ccc(C(Sc2ccccc2)c2ccccc2)cc1OC (configuration not stated) | i | 2.2

The final 2 records of the part above open the next one:
entry | mol | KCNQ2 block | KCNQ2 block baseline
29 | O=c1oc(/C=C/c2ccc([N+](=O)[O-])s2)nc2ccccc12 | i | -0.12
30 | COc1ccc(C(Sc2ccccc2)c2ccccc2)cc1OC (configuration not stated) | i | 2.2
31 | Cc1cc(C)c2cc(C#N)c(SCC(=O)Nc3cc(C)on3)nc2c1 | i | 0.77
32 | COc1ccc(F)cc1S(=O)(=O)N1CCN(c2ccccn2)CC1 | i | 0.24
33 | COc1ccc(C2(C(=O)NCCc3ccccc3)CCCC2)cc1 | i | -0.11
34 | CCOC(=O)/C(=N\Nc1cccc(Cl)c1)Sc1nnc(-c2ccc(OC)cc2)n1C | i | -1.1
35 | CCOC(=O)C1(Cc2ccccc2C)CCCN(Cc2cc(OC)c(O)c(OC)c2)C1 (configuration not stated) | i | -0.09
36 | COC(=O)COc1ccc(S(=O)(=O)Nc2cc(OC)ccc2OC)cc1 | i | -0.57
37 | COc1ccccc1CN1CCN(Cc2cc(OC)c(OC)cc2OC)CC1 | i | -0.06
38 | NC1=NC(=O)CC(C(=O)Nc2cccc3ccccc23)S1 (configuration not stated) | i | -0.02
39 | C=CCc1cc(Cl)ccc1OCCn1ccnc1 | i | 3.1
40 | COc1ccc(/C=C\c2nc(=O)c3ccccc3o2)cc1 | i | 0.92
41 | CCn1c(SCC(N)=O)nnc1-c1ccc(OC)c(OC)c1 | i | -0.07
42 | Cc1ccc(CN2CCN(/N=C/c3ccccc3)CC2)cc1 | i | -0.02
43 | CCCCC(=O)Nc1cc(OC)c(NC(=S)NC)cc1OC | i | 0.18
44 | CCOC(=O)Cn1c(CN2CC(C)OC(C)C2)nc2c1c(=O)n(C)c(=O)n2C (configuration not stated) | i | 2.9
45 | O=C(CSc1nc2ccc(Nc3nc(N4CCOCC4)nc(N4CCOCC4)n3)cc2s1)Nc1ccccc1F | i | -2
46 | COc1cc(CNC23CC4CC(CC(C4)C2)C3)ccc1OCc1ccccc1 | i | -0.07
47 | Cc1ccccc1-n1c(SCC(=O)N2CCC(C(=O)O)CC2)nnc1-c1ccncc1 | i | 0.03
48 | Nc1ccccc1C(=O)NCCCN1CCN(c2cccc(Cl)c2)CC1 | i | -0.55
49 | Cc1noc(C)c1C(=O)N1CCC(C(=O)c2ccc(F)cc2F)CC1 | i | -1.4
50 | CCCC(=O)Nc1ccc(OCC(O)CNC(C)C)c(C(C)=O)c1 (configuration not stated) | i | -1.1
51 | NC1=NC(=O)/C(=C/c2cn(Cc3ccccc3)c3ccccc23)S1 | i | 0.82
52 | O=C(OCc1csc(-c2ccccc2)n1)c1ccc(O)cc1 | i | -2.7
53 | CCCC(C(=O)NC1CCCC1)N(Cc1ccc2c(c1)OCO2)C(=O)c1snc(C(N)=O)c1N (configuration not stated) | i | -0.04
54 | CCCCn1c(N)c(N(Cc2ccccc2OC)C(=O)CN2C(=O)NC(C)(c3ccccc3)C2=O)c(=O)[nH]c1=O (configuration not stated) | i | 0.3
55 | COC(=O)CNC(=O)c1ccc(=O)oc1 | i | 1.1
56 | CSc1nc(-c2ccc(C)cc2)[nH]c1S(=O)(=O)c1ccccc1 | i | -0.46
57 | CCOC(=O)c1c(NC(=O)COC(=O)CNC(=O)c2ccco2)sc(C)c1C | i | 1.3
58 | Fc1ccc(CNCCC(Cc2ccccc2)c2ccco2)cc1 (configuration not stated) | i | 0.21
59 | O=C1CN(C(=O)CSc2nc3ccccc3c(=O)n2Cc2ccc(F)cc2)c2ccccc2N1 | i | 0.1
60 | Cc1ccc(C)c(S(=O)(=O)N2CCCCC2CCNC(=O)C(=O)NCc2ccccc2)c1 (configuration not stated) | i | -0.92

Ordered by count of non-hydrogen atoms (low to high): some entries from above.
entry | mol | KCNQ2 block | KCNQ2 block baseline
39 | C=CCc1cc(Cl)ccc1OCCn1ccnc1 | i | 3.1
41 | CCn1c(SCC(N)=O)nnc1-c1ccc(OC)c(OC)c1 | i | -0.07
45 | O=C(CSc1nc2ccc(Nc3nc(N4CCOCC4)nc(N4CCOCC4)n3)cc2s1)Nc1ccccc1F | i | -2

Remaining list, next part
entry | mol | KCNQ2 block | KCNQ2 block baseline
61 | O=C(CN1C(=O)c2ccccc2S1(=O)=O)N1CCN(c2ccccc2)CC1 | i | 1.1
62 | COc1ccc(C(=O)C2CCN(C(=S)NCCc3ccccc3)CC2)cc1 | i | 1.4
63 | Cc1ccc(S(=O)(=O)N2CCC(=O)N(C(COCc3ccc(C(F)(F)F)cc3)Cc3ccccc3)CC2)cc1 (configuration not stated) | -6.1* | -0.13*
64 | CC(C)C(=O)N/N=C/c1ccc(OCc2ccccc2)cc1 | i | -1.1
65 | CC(C)NC(=O)CSc1ccccc1C(=O)NNC(=O)Cn1ccc(C(F)(F)F)n1 | i | -1
66 | CCOc1ccc(-c2nnc(SCC(=O)N3CCN(c4ccccc4)CC3)o2)cc1 | i | -0.05
67 | CNC(=O)c1[nH]cnc1C(=O)N[C@@H](Cc1ccccc1)C(=O)OCc1ccccc1 | i | -0.58
68 | COc1ccc(NC(=O)CC2C(=O)N(c3cccc(OC)c3)C(=O)N2CCC(C)C)cc1 (configuration not stated) | i | -1.2
69 | O=C(c1ccccc1/S(=N/S(=O)(=O)c1ccccc1)N1CCOCC1)N1CCOCC1 (configuration not stated) | i | 2.3
70 | COc1cc(NC(=O)CC(C)n2ccnc2)cc(OC)c1 (configuration not stated) | i | 6.6
71 | CCOc1cccc(NCc2cc3c(C(C)(C)C)nn(-c4ccccc4)c3[nH]c2=O)c1 | i | 0.8
72 | CCc1c(C)c2cc(Cl)c(O)c(CN3CCCC3)c2oc1=O | i | -0.5
73 | Cc1ccc(N=Cc2nc(-c3ccc(C)cc3)oc2O)cc1 | i | 0.52
74 | Cc1cc2oc3ccc(NCCC4CCCN4C)cc3c(=O)c2cc1C (configuration not stated) | -6* | 2.4*
75 | Cc1ccc(NC(=O)Cn2nnc(C(=O)NCc3ccccc3)c2N)cc1C | i | 0.03
76 | Cc1ccc(C)c(N2CCN(S(=O)(=O)c3ccc4c(c3)C(C)(C)C(=O)N4C)CC2)c1 | i | -0.6
77 | Cc1ccc(C)c(N(C)S(=O)(=O)c2ccc3c(c2)oc(=O)n3C)c1 | i | 0.02
78 | COc1ccc(CNC(=O)c2cc(-c3cc(C)cc(C)c3O)n[nH]2)cc1 | i | -1.3
79 | CC1CC(=O)C2=C(C1)OC(N)=C(C#N)C2c1coc2ccccc2c1=O (configuration not stated) | i | -0.07
80 | CSCCC(NS(=O)(=O)/C=C/c1ccccc1)C(=O)N1CCC(C)CC1 (configuration not stated) | i | 0.27
81 | COc1ccc(Cl)cc1NC(=O)NC1CCCCC1 | i | -0.92
82 | O=C(CSc1nc2c(c(=O)n1-c1ccccc1)SCC2)N1CCN(c2ccccc2)CC1 | i | 1.2
83 | CC1CCN(S(=O)(=O)c2cccc(-c3csc(-c4cccnc4)n3)c2)CC1 | i | -2.4
84 | Cc1cccc(-n2ccc(=O)c(C(=O)Nc3ccc(S(=O)(=O)N4CCOCC4)cc3)n2)c1 | i | 0.16
85 | CCOC(=O)/C(=C\c1c[nH]c2ccccc12)NC(C)=O | i | -0.73
86 | O=C(CCC(=O)N/N=C/c1cc(Cl)cc(Cl)c1O)NCc1ccccc1 | i | -1.7
87 | COc1ccc(S(=O)(=O)NCc2ccco2)cc1C(=O)N1CCOCC1 | i | -1
88 | NCCCCCC(=O)N/N=C/c1ccc2nccnc2c1 | i | -0.91
89 | O=C1N=C(N2CCOCC2)S/C1=C\C=C/c1ccccc1 | i | 0.8
90 | CC(Oc1ccc2ccc(=O)oc2c1)C(=O)NCCN1CCOCC1 (configuration not stated) | i | 1.9

Additional structures follow.
entry | mol | KCNQ2 block | KCNQ2 block baseline
91 | COc1ccccc1OCCSc1nnnn1C1CCCCC1 | i | 0.72
92 | Cc1ccc(OCCNC(=O)CCc2nc3sc4c(c3c(=O)[nH]2)CCCC4)cc1 | i | 1.1
93 | Cc1ccc(/C(N)=N/OC(=O)c2ccco2)cc1 | i | 0.02
94 | Nc1nnc(Cc2ccc(Cl)cc2)s1 | i | 1.6
95 | Cc1ccc(OCCOC(=O)c2sc(=S)n(C)c2C)cc1 | i | -0.69
96 | COc1ccc(-c2cc(C(=O)N3CCN(S(=O)(=O)c4ccc(C)cc4)CC3)[nH]n2)cc1 | i | 0.85
97 | CC(C)(C)OC(=O)N1CCC[C@H]1C(=O)N/N=C/c1ccc2ncccc2c1 | i | -1.8
98 | O=C(c1ccc(Cl)c(S(=O)(=O)N2CCCC2)c1)N1CCN(c2ccccc2F)CC1 | i | -0.65
99 | O=C(c1cc(-c2ccccn2)nc2c(Cl)cccc12)N1CCN(C(=O)C2CCCO2)CC1 (configuration not stated) | i | 3.1
100 | Cc1nc(SCC(N)=O)[nH]c(=O)c1CCC(C)C | i | -0.08
101 | O=C(CCNc1ccc(F)cc1)c1ccco1 | i | 1
102 | O=C(COc1ccc(S(=O)(=O)N2CCOCC2)cc1)Nc1ccccc1C(F)(F)F | i | 1.3
103 | CCc1nc(SCC(=O)Nc2c(C)n(C)n(-c3ccccc3)c2=O)n[nH]1 | i | -0.65
104 | O=C(Nc1ccnn1C1CCN(C2CCCC2)CC1)c1ccccc1 | i | -0.21
105 | COc1ccc(-c2cc(=O)c3c(OC)c(OC)c(OC)c(OC)c3o2)cc1OC | i | 0.37
106 | O=C(Nc1nnc(C2=COCCO2)o1)C1CCCCC1 | i | 0.11
107 | COC(=O)c1ccccc1NC(=S)N1CCN(c2ccc(OC)cc2)CC1 | i | -0.45
108 | CSCc1ccc(C(=O)Nc2cccc(C)c2C)cc1 | i | 2.7
109 | Cc1ccc(C(=O)CC(c2cccs2)S(=O)(=O)c2ccc(C)cc2)cc1 (configuration not stated) | i | -0.76
110 | O=C(NCc1cccc(Br)c1)c1cc(-c2ccccc2)nn1CC1CC(c2cccc([N+](=O)[O-])c2)=NO1 (configuration not stated) | i | -1
111 | NC(CO)C(O)c1ccc([N+](=O)[O-])cc1 (configuration not stated) | i | -0.67
112 | NC(=O)CSc1nc2cccnc2n1-c1ccc(F)cc1 | i | 0.84
113 | CCCCc1cc2c(s1)CCCC/C2=N/O | i | -0.93
114 | CCNC(=S)/N=C(/Nc1ccc(OC)cc1)Nc1nc(C)cc(C)n1 | i | -0.13
115 | CC(C)(C)NC(=O)CSc1nc(-c2ccccc2)cc(=O)[nH]1 | i | -0.06
116 | Cc1cccc(N2CCN(C(=O)N3CCCCC3)CC2)c1C | i | -0.11

Six of the entries above in order of their number in KCNQ2 block baseline, rising:
entry | mol | KCNQ2 block | KCNQ2 block baseline
106 | O=C(Nc1nnc(C2=COCCO2)o1)C1CCCCC1 | i | 0.11
84 | Cc1cccc(-n2ccc(=O)c(C(=O)Nc3ccc(S(=O)(=O)N4CCOCC4)cc3)n2)c1 | i | 0.16
8 | Cc1cc(C)n(CCc2nc(-c3ccc(C)o3)cs2)n1 | i | 0.59
51 | NC1=NC(=O)/C(=C/c2cn(Cc3ccccc3)c3ccccc23)S1 | i | 0.82
13 | CCN(CC)S(=O)(=O)c1ccc(Cl)c(C(=O)Nc2cccnc2)c1 | i | 0.88
40 | COc1ccc(/C=C\c2nc(=O)c3ccccc3o2)cc1 | i | 0.92

Assay outcomes (PubChem)

A portion of the library; rates above refer to the full screens.
